Screening data: PubChem, several laboratories
Yeast UUG start: alters start codon recognition fidelity in yeast | activity score, % at 18.7 µM | S. cerevisiae UUG-firefly luciferase reporter, luminescence/redox ratio | 350,000 tested, 0.13% active;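 active = replicate mean at a twofold rise or more, about +100% in these data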;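 also: firefly luciferase made from a UUG start codon reports start codon fidelity; reporter light over untreated wells divided by growth signal over untreated wells; some hits fall short of that in this replicate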
MT1-MMP act inh: MT1-MMP (human) activation inhibition | 360,000 tested, 0.061% active | GFP/RFP ratio change, % at 20 µM | HT1080 RFP-PRO-GFP cells, GFP/RFP ratio fluorescence, overnight; percent of plate control window, DMSO zero;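 active = GFP/RFP ratio change of at least 30% with cell ATP level not reduced by more than half and red fluorescence within 50% of control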; also: strong numbers were not always called active
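Assay system – RFP-PRO-GFP reporter HT1080 cells · Compound dosing – single dose of 20 µM compound, 1% DMSO final · Incubation – overnight compound exposure at 37 °C · Measure – GFP/RFP fluorescence ratio · Benchmarks – DMSO wells and RFP-L50D-GFP cells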
PABP FP inh: blocks human PABP binding to poly(A) RNA. inhibition, % at 35 µM. AID 2014. P11940. fluorescence polarization. 290,000 tested, 1% active;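 active = 50% or more with normal probe brightness, or confirmed in later tests; inconclusive = above 50% with abnormal brightness, or retests that disagree; inactive = below 50% or failed in later tests; about a fifth of its hits are not listed in these tables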;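 also: calls also rest on retests at 20 µM and on dose response follow-up; controls were probe without protein and protein plus probe with vehicle; some compounds called inactive have numbers as strong as hits; many hits fall short of the cut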
Target sequence (P11940 whole entry, looked up): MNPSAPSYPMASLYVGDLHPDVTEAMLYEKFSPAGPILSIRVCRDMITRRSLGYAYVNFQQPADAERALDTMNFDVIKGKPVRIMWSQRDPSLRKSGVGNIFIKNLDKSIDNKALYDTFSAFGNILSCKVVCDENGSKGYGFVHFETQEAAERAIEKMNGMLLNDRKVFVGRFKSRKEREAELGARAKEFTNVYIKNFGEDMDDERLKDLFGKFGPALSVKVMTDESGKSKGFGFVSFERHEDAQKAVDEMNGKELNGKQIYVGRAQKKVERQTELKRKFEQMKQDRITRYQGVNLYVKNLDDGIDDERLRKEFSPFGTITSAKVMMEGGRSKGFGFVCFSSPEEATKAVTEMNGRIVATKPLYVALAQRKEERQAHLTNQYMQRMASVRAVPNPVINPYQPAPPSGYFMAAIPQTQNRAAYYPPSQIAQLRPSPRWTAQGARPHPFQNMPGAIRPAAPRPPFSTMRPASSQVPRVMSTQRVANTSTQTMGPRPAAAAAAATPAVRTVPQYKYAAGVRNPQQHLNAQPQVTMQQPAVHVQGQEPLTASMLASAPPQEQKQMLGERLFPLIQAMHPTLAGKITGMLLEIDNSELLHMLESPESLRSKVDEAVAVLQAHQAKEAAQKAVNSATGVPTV
Rce1 inh: yeast Ras-converting enzyme inhibition | Q03530 | yeast membranes, quenched prenylated peptide cleavage fluorescence | calls only | 290,000 tested, 0.27% active;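 active = fall in fluorescence gain of 50% or more versus controls, with final raw signal at or below 3038400; inconclusive = same 50% fall but final raw signal above 3038400; inactive = fall in fluorescence gain under 50%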;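 also: plate controls were neutral control wells for no effect and wells lacking membranes for full effect; tested at 10 µM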
HIV Env fusion: inhibitors of HIV Env-mediated cell fusion | HeLa-JRFL Env/CEM21 cell fusion, luciferase | inhibition, % at 12.3 µM | 360,000 tested, 1.1% active | AID 651610;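 active = mean replicate inhibition score of at least 50 and every replicate individually at or above 50; inconclusive = only one of the two criteria met; inactive = mean below 50 and not all replicates reaching 50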;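 also: 0% = plate neutral controls and 100% = maraviroc near 300 nM; one replicate is shown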
eIF4H FP inh: inhibitors of RNA binding by human eIF4H | inhibition, % at 35 µM | Q15056 | eIF4H fluorescence polarization binding assay | 290,000 tested, 0.94% active | AID 2012;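 active = 50% or more with normal probe brightness, or confirmed in later tests; inconclusive = above 50% with abnormal brightness, or retests that disagree; inactive = below 50% or failed in later tests; about a fifth of its hits are not listed in these tables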;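 also: calls also rest on retests at 20 µM and on dose response follow-up; 0% = protein and probe with vehicle and 100% = probe without protein; strong numbers were not always called active; many hits fall short of the cut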
CSC inhib: cancer stem cell inhibition. inhibition, % at 7.5 µM. 300,000 tested, 1.1% active. cancer stem cell-like cells viability, luminescence;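 active = mean at 75% or more and at least half the replicates too; inconclusive = mean and replicates disagree; tested in HMLE shEcad cells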;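 also: 0% = median of negative and 100% = median of positive control wells; the first replicate is given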
eIF4H FP inh retest: second read-out of eIF4H FP inh, no call of its own (marks repeat the call); inhibition, %; compound at 20 µM; confirmation average;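 mean of two retest wells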
PABP FP inh retest: second read-out of PABP FP inh, no call of its own (marks repeat the call); inhibition, %; compound at 20 µM; confirmation repeats;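 mean of two retest wells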
MT1-MMP act inh RFP: also measured in MT1-MMP act inh; calls as there; RFP signal change, %; measured here: RFP expression control read;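 0 = vehicle wells; hits needed this value within 50% of zero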
Starred values were filed as active, the others as inactive; i = inactive; ? = inconclusive; · = no result given. An unsorted share of the library, and some 2.9% of all compounds hit somewhere here.

SMILES | Yeast UUG start | MT1-MMP act inh | MT1-MMP act inh RFP | PABP FP inh | Rce1 inh | HIV Env fusion | eIF4H FP inh | CSC inhib | others
CCOc1ncccc1C(=O)NCCc1ccc(OC)cc1 | -14 | 0 | -2 | 1 | i | -20 | -2 | 50
Cc1c2c(nc3c(C(=O)NC4CCCCC4C)cnn13)CCCC2 (stereo unspecified) | · | · | · | -10 | i | · | -10 | 13
O=[N+]([O-])c1cccc(CON=Cc2cc(Cl)ccc2O)c1 | 1 | 2 | -1 | · | · | 2 | · | ·
CC1CCN(C(=O)c2ccc(N3C(=O)c4ccccc4C3=O)cc2)CC1 | -5 | -1 | 3 | 19 | i | -8 | -2 | 5
CCC1CCCCN1C(=O)CSc1nnc(-c2ccc(Cl)cc2)o1 (stereo unspecified) | -7 | -2 | -7 | -3 | i | 19 | 2 | ·
Cc1cccc(C(=O)OCC(=O)NC23CC4CC(CC(C4)C2)C3)c1O | -12 | -1 | 3 | · | · | -8 | · | -16
Cc1cc(C)n(-c2nc3c(c(=O)[nH]c(=O)n3C)n2C)n1 | -7 | 2 | 4 | 5 | i | · | -1 | 1
O=c1cc(SCc2ccccc2)nc[nH]1 | -15 | 2 | 1 | · | · | 2 | · | ·
CCOC(=O)C1C(=O)CC(C)(O)C(C(=O)OCC)C1c1cccc(OC)c1 (stereo unspecified) | -8 | -6 | -2 | -2 | i | · | -6 | -5
Cc1cc(C)c(C)c(S(=O)(=O)Nc2ccccc2C(=O)NCCCN2CCOCC2)c1C | 12 | -3 | -2 | 13 | i | -20 | -3 | 4
COc1ccccc1-n1cnnc1SCC(=O)Nc1ncc(Cl)cc1Cl | -4 | -13 | -3 | 6 | i | -72 | 8 | 19
CC(Oc1cccnc1[N+](=O)[O-])C(=O)Nc1ccc(Cl)cn1 (stereo unspecified) | -4 | 1 | 5 | · | · | · | · | -17
CCOc1cc(CNc2ccccc2)cc(Br)c1OCc1ccccc1F | 1 | 0 | 0 | 0 | · | 65 | -3 | 19
COc1ccc(CCN2C(=O)NC(NS(=O)(=O)c3ccc(NC(C)=O)cc3)(C(F)(F)F)C2=O)cc1OC (stereo unspecified) | 6 | -2 | 3 | 3 | i | 17 | -5 | -5
Nc1cc(-c2ccc(Cl)cc2)nn1-c1ccccc1 | · | -4 | -2 | ? | i | -76 | 2 | 3
CCOC(=O)c1cc2sccc2n1Cc1ccc(C#N)cc1 | 5 | 5 | 1 | -2 | i | · | -4 | 2
C/C(=N\NC(=O)c1ccn(C)n1)c1ccc(NC(=O)c2cccc(F)c2)cc1 | -18 | -1 | 2 | -18 | i | -12 | -8 | ·
COC(=O)c1ccccc1NC(=O)CCS(=O)(=O)c1ccc(Br)cc1 | · | -2 | 4 | 5 | i | -7 | 86* | · | eIF4H FP inh retest=66*;PABP FP inh retest=43
CCNC(=O)COc1ncnc2scc(-c3ccc(F)cc3)c12 | · | -1 | 3 | -20 | i | 11 | -5 | 7
COc1ccc(-n2c(SCC(=O)Nc3cccc(C(=O)O)c3)nnc2-c2ccco2)cc1 | -9 | -1 | 6 | -14 | i | 9 | 8 | -3
Cc1nn(CC(=O)NCc2ccccc2F)c(C)c1[N+](=O)[O-] | · | 5 | 7 | 10 | i | -44 | 2 | -7
Cc1cc(C(=O)CSc2nnc3ccccn23)c(C)n1-c1ccccc1 | · | · | · | 1 | i | 61* | 8 | -8
Cc1occc1C(=O)NC(C)c1ccc2c(c1)OCO2 (stereo unspecified) | 4 | 3 | 7 | 16 | i | · | 6 | -13
Cc1c(NC(=O)c2ccc(Br)o2)cccc1C(=O)O | -20 | 1 | 0 | 2 | i | · | 4 | -14
CCOC(=O)NC(=O)/C(C#N)=N/Nc1ccc(F)cc1 | -6 | -3 | -1 | 12 | i | -11 | -3 | 6
Cc1ccc(Cl)cc1NC(=O)C1C2CCC(O2)C1C(=O)O (stereo unspecified) | -13 | 2 | 1 | -1 | i | -40 | -1 | -6
Cc1ccc(-c2ccc(=O)n(Cc3c(F)cccc3Cl)n2)cc1 | -5 | -2 | -5 | 3 | i | 16 | -12 | -2
COc1cc2cc(CN(Cc3nnnn3Cc3ccco3)C3CCCCC3)c(=O)[nH]c2cc1OC | -18 | -4 | 7 | 64* | i | · | 61* | -9
O=C(COC(=O)c1ccc(S(=O)(=O)N2CCCC2)cc1)NCc1ccc(Cl)cc1 | -17 | 2 | 1 | -1 | · | -10 | 5 | -6
O=C(O)C(Cc1ccc(OS(=O)(=O)Cc2ccccc2)cc1)NS(=O)(=O)Cc1ccccc1 (stereo unspecified) | 0 | 4 | 5 | · | · | -4 | · | ·
COC(=O)C1=C(CCc2ccccc2)NC(=O)NC1c1ccc(Br)cc1 (stereo unspecified) | -9 | 7 | 0 | -1 | i | 12 | 4 | 4
CCN(CC(=O)Nc1c(F)cccc1F)C(=O)Cc1ccsc1 | -3 | 0 | 1 | · | · | · | · | 8
COc1cccc(C(=O)NNc2c3ccccc3nc3ccccc23)c1 | -4 | 22 | -2 | 10 | i | 5 | -9 | -2
O=C(CCn1c(=O)[nH]c2ccsc2c1=O)N1CCN(c2ccc([N+](=O)[O-])cc2)CC1 | 2 | 1 | -5 | -2 | i | 11 | -15 | -12
Cc1ccc(CNC(=O)Cn2cccc2C(=O)c2ccccc2)cc1 | -21 | -2 | -2 | -5 | i | -9 | 10 | -5
Cn1cc(-c2nnc(-c3ccccc3)o2)c2ccccc21 | -27 | 5 | 5 | 2 | i | i | -14 | -8

Entries from the list above that have a cyano group, in the order listed:
SMILES | Yeast UUG start | MT1-MMP act inh | MT1-MMP act inh RFP | PABP FP inh | Rce1 inh | HIV Env fusion | eIF4H FP inh | CSC inhib | others
CCOC(=O)c1cc2sccc2n1Cc1ccc(C#N)cc1 | 5 | 5 | 1 | -2 | i | · | -4 | 2
CCOC(=O)NC(=O)/C(C#N)=N/Nc1ccc(F)cc1 | -6 | -3 | -1 | 12 | i | -11 | -3 | 6

(next part)
SMILES | Yeast UUG start | MT1-MMP act inh | MT1-MMP act inh RFP | PABP FP inh | Rce1 inh | HIV Env fusion | eIF4H FP inh | CSC inhib | others
CCOC(=O)c1sc(NC(=O)/C=C/c2c(F)cccc2Cl)nc1C | · | -1 | 3 | -8 | i | -24 | -10 | 2
COc1ccc(-c2cc(C(=O)Nc3sc4c(c3C#N)CCCC4)c3ccccc3n2)cc1OC | -28 | 1 | 1 | 12 | i | · | -3 | 4
CCOC(=O)C1=C(NC(=S)NC(=O)c2ccccc2)c2ccccc2CC1C(C)C (stereo unspecified) | -8 | -23 | -18 | 1 | i | · | -7 | -3
CCC(C)NC(=O)c1cc(-c2ccc(OC)cc2)on1 (stereo unspecified) | -29 | 2 | -5 | 5 | i | -119 | -4 | ·
COc1cc(NC(=O)CSc2nc3ccccc3c(=O)n2C)ccc1NC(=O)c1ccco1 | · | 6 | 0 | -2 | i | 4 | -11 | -9
COc1ccccc1NS(=O)(=O)c1cccc(C(=O)NN)c1 | -16 | 13 | 5 | -1 | · | 12 | -1 | ·
CCOC(=O)N1CCC(N2C(=O)c3ccccc3C2Nc2cc(Cl)c(OC)cc2OC)CC1 (stereo unspecified) | 13 | 6 | -1 | -20 | i | -47 | 0 | -18
CSc1nc2nccc(-c3ccc(Cl)cc3)n2n1 | -19 | 0 | 4 | 19 | i | · | -6 | 7
Cc1cc(NC(=O)CSCC(=O)N(C)Cc2cccc(Cl)c2)no1 | -25 | 6 | -1 | · | i | -8 | · | 23
CC(OC(=O)/C=C/c1cccc(C(F)(F)F)c1)C(=O)NC1CCCCC1C (stereo unspecified) | · | 3 | 6 | · | i | -2 | · | -13
O=C(N=Nc1c(O)[nH]c2ccccc12)c1ccco1 | -18 | -1 | -1 | -7 | i | -51 | -3 | -2
Cc1cc(=O)[nH]c2c1cnn2Cc1ccccc1 | -10 | 2 | 5 | -11 | i | · | 2 | -17
CC(C)Nc1nnc(SCC(=O)/C=C2\N(C)c3ccccc3C2(C)C)s1 | -1 | 2 | 6 | -17 | i | 29 | 16 | 23
CCN(CC(=O)NCc1cccs1)C(=O)/C=C/c1cc(Br)ccc1OC(F)F | -4 | 5 | -4 | · | · | · | · | -12
O=C(NC(c1ccccc1)c1ccsc1)C1CCN(CCOc2ccc(Cl)cc2Cl)CC1 (stereo unspecified) | -29 | 1 | -2 | · | · | -14 | · | ·
COc1ccccc1N1CCN(CCOc2c(OC)cccc2OC)CC1 | · | -5 | 2 | 10 | i | 63* | -4 | 3
O=C1CCC(=O)N1OCCCCOc1ccccc1 | -9 | 10 | 8 | 4 | i | · | -2 | -9
Cc1ccc(C(=O)N/C(=C\c2cccs2)C(=O)NCC2CCCO2)cc1C (stereo unspecified) | · | 6 | 9 | -2 | i | -4 | 1 | -11
COc1cccc(NC(=O)CN(C)CC(=O)NCc2ccc(F)cc2)c1 | -4 | -1 | 2 | · | · | -4 | · | -19
Cc1ccccc1NC(=O)C1CCN(S(=O)(=O)c2cccc3nonc23)CC1 | -30 | -1 | -5 | 8 | i | 3 | 0 | -8
CCOC(=O)CSc1nnc(N)s1 | · | -2 | 2 | -3 | i | · | -7 | 4
Cc1cc(C)c2[nH]c(C(=O)Nc3ccc4c(c3)OCO4)cc2c1 | · | 0 | -11 | -8 | i | -69 | 12 | 60
Cc1nnc(SCC(=O)Nc2ccc3c(c2)OCO3)o1 | -19 | 1 | 2 | -1 | i | · | 3 | 5
COc1ccccc1NS(=O)(=O)c1ccc(NC(C)=O)cc1 | -1 | -1 | -3 | -2 | i | -21 | 7 | ·

Looked up one by one from the list above (4):
SMILES | Yeast UUG start | MT1-MMP act inh | MT1-MMP act inh RFP | PABP FP inh | Rce1 inh | HIV Env fusion | eIF4H FP inh | CSC inhib | others
CCC1CCCCN1C(=O)CSc1nnc(-c2ccc(Cl)cc2)o1 (stereo unspecified) | -7 | -2 | -7 | -3 | i | 19 | 2 | ·
CC1CCN(C(=O)c2ccc(N3C(=O)c4ccccc4C3=O)cc2)CC1 | -5 | -1 | 3 | 19 | i | -8 | -2 | 5
Cc1cc(C(=O)CSc2nnc3ccccn23)c(C)n1-c1ccccc1 | · | · | · | 1 | i | 61* | 8 | -8
Nc1cc(-c2ccc(Cl)cc2)nn1-c1ccccc1 | · | -4 | -2 | ? | i | -76 | 2 | 3

The list goes on:
SMILES | Yeast UUG start | MT1-MMP act inh | MT1-MMP act inh RFP | PABP FP inh | Rce1 inh | HIV Env fusion | eIF4H FP inh | CSC inhib | others
C=CCn1c(SCC(=O)NCc2ccc3c(c2)OCO3)nnc1C1COc2ccccc2O1 (stereo unspecified) | 0 | 0 | -4 | -4 | · | -22 | 2 | -17
O=c1ccc2nc3ccccc3sc-2c1 | -28 | 21 | 16 | · | · | 2 | · | ·
COC(=O)[C@H]1C[C@H](OC(=O)NCc2ccccc2F)[C@@]2(O)CN(S(=O)(=O)c3ccc(C)cc3)CC2[C@H]1C(=O)OC (stereo partly specified) | -11 | 1 | 5 | · | · | -18 | · | ·
COc1ccc(-c2ccc(F)cc2)cc1[C@H]1[C@H]2C=CC[C@@H](C)[C@@H]2C(=O)N1Cc1ccccc1 | -18 | -14 | -32 | 5 | i | ? | -4 | -6
